Six1-Eya2 inh: qHTS Assay for Inhibitors of the Six1/Eya2 Interaction; AlphaScreen GST-Six1/His-Eya2 binding, biochemical; hits give low values; control for the full effect not named in the record; activity change, % (test concentration not listed); 0.56% of 360,000 active; AID 651725, 2012; in the data active = activity change below about -65%; inconclusive = about -30% to -65%; inactive = above about -30%; also: % is scaled to controls: 0 for no effect and ±100 for the full control effect; compound concentration not given in the record
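AlphaScreen luminescence read after one hour at 37 °C in darkness. Pin-transferred compounds met GST-Six1 and His-Eya2 protein (5X stock 250 nM/500 nM) plus glutathione donor and Ni-chelate acceptor beads (5X, 50 ug/mL).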
TRPML1 blocker: qHTS for Inhibitors of the Human Mucolipin Transient Receptor Potential 1 (TRPML1) | activity change, negative = inhibition, % (test concentration not listed) | 0.02% of 390,000 active | AID 624415, 2012 | TRPML1-inducible cells, Ca2+ dye fluorescence, FDSS; hits give low values; inhibition of EC80 agonist-evoked calcium signal; in the data active means activity change below about -50%; inconclusive means about -30% to -50%; inactive means above about -30%;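 also: stimulus is agonist 54-4 at its EC80 concentration; % is scaled to controls: 0 for no effect and ±100 for the full control effect; compound concentration not given in the record; the text of the record puts the active cut at -80%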
Target sequence (Q9GZU1 whole entry, looked up): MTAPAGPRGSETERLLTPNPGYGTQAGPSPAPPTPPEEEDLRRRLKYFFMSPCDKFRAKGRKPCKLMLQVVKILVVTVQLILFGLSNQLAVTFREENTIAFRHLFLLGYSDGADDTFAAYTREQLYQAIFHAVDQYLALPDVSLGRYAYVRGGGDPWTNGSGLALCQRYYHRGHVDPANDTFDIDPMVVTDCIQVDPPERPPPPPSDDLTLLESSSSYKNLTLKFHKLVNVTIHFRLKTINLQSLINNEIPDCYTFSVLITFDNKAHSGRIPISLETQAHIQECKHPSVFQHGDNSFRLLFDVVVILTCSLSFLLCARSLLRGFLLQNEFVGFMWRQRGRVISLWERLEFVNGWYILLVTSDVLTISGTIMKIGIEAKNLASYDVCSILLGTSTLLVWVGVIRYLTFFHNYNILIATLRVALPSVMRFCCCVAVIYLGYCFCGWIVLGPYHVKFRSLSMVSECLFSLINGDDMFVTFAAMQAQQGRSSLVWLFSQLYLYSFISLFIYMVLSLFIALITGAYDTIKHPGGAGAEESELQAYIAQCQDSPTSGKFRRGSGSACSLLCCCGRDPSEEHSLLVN
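Calcium fluorescence in TRPML1-DL cells induced overnight with Tet: a 110 s read after compound pin addition, then a 110 s antagonist read after challenge with 54-4 at 4 uM final (EC80).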
TRPML1 agonist: qHTS for Agonists of the Human Mucolipin Transient Receptor Potential 1 (TRPML1); 0.12% of 410,000 active; activation, % (test concentration not listed); TRPML1-expressing cells, Ca2+ dye fluorescence, FDSS; host cell line not named in the record; reference of the full effect not given here; in the data active = activation above about 50%; inconclusive = about 30% to 50%; inactive = below about 30%; also: 0% is about no effect; the text of the record puts the active cut at 80%
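Agonist activity was taken from a 110 s kinetic Ca2+ dye read on the FDSS after pinning compounds onto TRPML1-DL cells. The cells were seeded at 1,500/well with Tet inducer, incubated about 16 h, then dye-loaded at room temperature.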
D2 agonist: Beta-Arrestin HTS for Positive Allosteric Modulators of the Human D2 Dopamine Receptor: Agonists; AID 624465, 2012; 0.084% of 360,000 active; DiscoveRx PathHunter D2 beta-arrestin, luminescence, 90 min; 100% = 57 uM dopamine signal; activation, % (concentration not given with the values); D(2) dopamine receptor (Homo sapiens), P14416; in the data active = activation above about 40%; inconclusive = about 15% to 40%; inactive = below about 15%; also: compound concentration not given in the record; the text of the record calls up to 30% inactive
Target sequence (P14416 whole entry, looked up): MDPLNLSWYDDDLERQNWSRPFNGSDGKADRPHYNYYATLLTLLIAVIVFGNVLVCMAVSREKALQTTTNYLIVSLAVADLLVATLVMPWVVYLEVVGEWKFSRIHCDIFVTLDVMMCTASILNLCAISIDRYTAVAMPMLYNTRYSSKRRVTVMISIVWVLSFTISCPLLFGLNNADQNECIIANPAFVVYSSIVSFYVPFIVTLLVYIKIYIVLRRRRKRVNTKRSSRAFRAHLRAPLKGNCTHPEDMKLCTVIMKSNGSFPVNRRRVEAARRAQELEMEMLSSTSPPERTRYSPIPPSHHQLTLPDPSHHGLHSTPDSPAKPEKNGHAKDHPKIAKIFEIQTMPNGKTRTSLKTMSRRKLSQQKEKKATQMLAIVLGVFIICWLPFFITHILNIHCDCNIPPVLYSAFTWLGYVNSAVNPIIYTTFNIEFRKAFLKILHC
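DiscoveRx PathHunter D2 beta-arrestin cells (2,100/well) attached overnight, then compound-stimulated 90 min at 37 C in HBSS/10 mM HEPES/0.1% Tween-20 buffer; beta-galactosidase complementation read by luminescence after 1 h at ambient temperature. Dopamine 57 uM final (EC100) as control.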
D2 potentiator: Beta-Arrestin HTS for Positive Allosteric Modulators of the Human D2 Dopamine Receptor: Potentiators; DiscoveRx D2 beta-arrestin cells, luminescence, 90 min; 100% = 57 uM dopamine signal; potentiation, % (concentration not given with the values); 0.23% of 360,000 active; active = potentiation of 50% or more; inconclusive = 30% to 50%; inactive = 30% or less;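 also: compound concentration not given in the record; tested on top of an EC20 dose of dopamine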
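D2 cells co-treated with compound plus 50 nM dopamine (EC20) for 90 min at 37 deg C to detect potentiation. Beta-arrestin recruitment was read as enzyme-fragment luminescence after 1 h at ambient temperature. Full response was set by 57 uM dopamine.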
PINK1 expr mod: A Quantitative High throughput Screen to Identify Chemical Modulators of PINK1 Expression; PINK1 immunofluorescence, high-content cytometry, 24 h; Potency, µM (series often up to 76.6 µM), for the others: at the top dose activation (PINK1 increase), actives largely listed as activators; AID 624263, 2012; 0.2% of 410,000 active; active = well fitted activation curve with a large enough effect; inconclusive = small, poorly fitted or top-dose-only effect; inactive = flat fitted curve, though single readings scatter; cell line not stated here;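 also: potency is read from the fitted curve at half-maximal effect; % of control where 0% means no effect; nearly all actives have a fitted effect of over 65% in size; a mitochondrial uncoupler was the plate control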
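Stable cell line treated 24 h with compounds at 5 concentrations (CCCP controls), then fixed and immunostained for PINK1 plus nuclear and cell stains; PINK1 immunofluorescence quantified by laser-scanning microplate cytometry.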
Numbers without * were called inactive; ? = inconclusive; . = no result given; [ ] = remark or other dose.

SMILES	Six1-Eya2 inh	TRPML1 blocker	TRPML1 agonist	D2 agonist	D2 potentiator	PINK1 expr mod
O=C(c1ccco1)N1CCN(S(=O)(=O)c2ccc([N+](=O)[O-])cc2)CC1	0	-9	1.1	0.3	8	-0.4%
O=C(O)c1ncn(Cc2ccccc2)c1C(=O)O	-69*	-5	1.1	2.5	-12	-3.0%[38.3 µM]
CN1CCN(C(=O)C(=O)c2cn(CC(=O)N3CCCC3)c3ccccc23)CC1	2	1	-0.2	0.6	1	0.4%
CC(=O)Nc1nonc1-c1nnc(SCC(=O)Nc2cc(C)cc(C)c2)n1C	.	34	1.1	.	.	-0.3%
CCCCCn1cnc2sc(CC)cc2c1=O	9	20	-0.6	-2.4	-4	4.5%
O=S(=O)(c1ccc(Cl)s1)N1CCc2ccccc2C1	?	30	0.0	-0.5	17	2.9%[38.3 µM]
COc1ccccc1-n1cnc2cc(NCc3cccs3)ccc21	?	11	-0.1	-1.5	-26	-0.9%
CC(C)CCC(CCNCc1ccccn1)c1ccc(Cl)cc1 (stereo not given)	6	26	1.9	-2.9	-11	-1.5%
O=C(NC1CCCN(Cc2ccc(Cl)cc2)C1)c1c(F)ccc(F)c1F (stereo not given)	11	8	0.4	-3.3	-5	0.3%
CCOC(=O)c1cc2c(N)c(C(=O)c3cc(C#N)c(SC)nc3C)sc2nc1C	-3	9	0.5	1.8	-7	4.1%[38.3 µM]
CCN(CC)C(=O)c1nn(Cc2ccccc2)c(=O)c2ccccc12	5	15	1.8	7.3	5	-1.0%
Cc1cc(-c2cc(C(=O)NC3CCCC3)on2)nc(NC2CCCC2)n1	0	-4	1.0	0.4	-1	4.1%
COc1cccc(NC(=O)c2cc3ccccc3oc2=O)c1	-7	11	-0.7	1.3	-6	10%
Cc1ccccc1-c1nnc(SC(C)C(=O)NC2CCCC2)o1 (stereo not given)	8	-17	2.2	10	0	1.1%
Cc1nn(C)cc1S(=O)(=O)Nc1ccc(C(F)(F)F)cc1	0	-18	1.0	1.4	-5	-0.5%
COc1ccc(SC[C@H](Cc2ccccc2)N2CCN(C)CCC2=O)cc1	-7	12	0.2	-1.3	-16	-0.3%
C/C(=N\NC(=O)OC(C)(C)C)c1ccc[nH]1	-7	-11	0.0	-2.5	-5	-0.5%
Cn1c(-c2c(N)n(C3CCCC3)c3nc4ccccc4nc23)nc2ccccc21	35	-12	10	-5.9	-11	?
COc1cc(NC(=O)c2cccs2)c(C(=O)OCC(=O)NC(=O)NC(C)(C)C)cc1OC	-2	-9	2.4	-0.8	-12	-0.8%
O=C(Nc1nnc(S(=O)(=O)N2CCCc3ccccc32)s1)c1ccccc1Cl	.	0	3.5	.	.	0.7%
CCn1c(/C(C#N)=C/c2ccccc2Cl)nc2ccccc21	.	2	-1.0	.	.	-0.2%
COc1ccc(C#Cc2cnc3c(c2)C(=O)N([C@@H](C)CO)C[C@@H](C)[C@@H](CN(C)CC2CCOCC2)O3)cc1	-4	-8	0.5	-3.0	1	4.2%
CCCOC1CCCN(C(=O)CCc2nnc(Cc3cccc(C)c3)o2)C1 (stereo not given)	-2	4	-0.9	8.1	-3	1.6%
CN1CCN(C(=O)c2cccn(Cc3c(Cl)cccc3Cl)c2=O)CC1	23	3	-1.1	-4.1	-4	5.9%
CCOC(=O)c1ccc(NC(=O)c2nc[nH]c2C(=O)N[C@@H](CC(C)C)C(=O)OCc2ccccc2)cc1	-2	-9	1.4	-6.0	-7	?
Cc1no[n+]([O-])c1COc1ccccc1/C=N/n1nnnc1N	0	4	3.0	-0.6	-2	0.2%
CCn1c(C(=O)O)c(CC(=O)Nc2ccccc2F)c2ccccc21	-1	26	3.8	-3.7	5	3.0%
C[C@]12C(=O)N(c3ccccc3)C(=O)N1[C@@H]1c3ccccc3OC[C@@H]1[C@H]2c1ccccc1	3	62	1.0	-1.2	-5	0.3%
OCCNc1ncnc2c1ncn2[C@H]1CN(Cc2ccco2)C[C@@H](CO)O1	7	.	0.4	-1.9	-4	-1.1%
Cc1[nH][nH]c(=O)c1C(c1c(C)[nH][nH]c1=O)c1cn(C)c2ccccc12	1	7	0.8	-5.3	-10	0.2%
O/N=C1\CCCc2ccc3ccccc3c21	-15	-2	-0.5	-1.6	-3	3.1%
O=C(NC(C(=O)c1ccccc1)c1ccccc1)c1ccccc1 (stereo not given)	7	7	-0.3	1.3	2	2.7%
Cc1ccc(C(C(=O)NCc2ccc(F)cc2)N(CCCO)C(=O)C2COc3ccccc3O2)o1 (stereo not given)	-4	19	-1.2	2.0	8	0.6%
COC(=O)c1c(NC(=O)c2ccccc2C(=O)O)sc2c1CCC2	0	5	-0.5	2.5	0	1.6%
CCSc1nnc2c(n1)OC(c1ccc(C)cc1)N(C(C)=O)c1ccccc1-2 (stereo not given)	.	-11	-0.1	.	.	1.7%
Nc1nonc1-n1nnc(C(=O)N/N=C/c2ccncc2)c1-c1ccccc1	-2	5	-0.1	-0.4	-12	2.7%
Cc1ccc(-c2nc3sc(CCNC(=O)c4ccc(C)c(C)c4)c(C)n3n2)cc1	.	-12	-0.9	.	.	2.4%
O=C(NCCN1CCN(c2ccccc2)CC1)C1CCN(S(=O)(=O)c2cccs2)CC1	1	-2	-0.8	?	-6	-0.9%
CCCOc1ccc(C2=NC(c3ccc(F)cc3)=Nc3ccc(OC)cc3N2)cc1	.	38	0.9	.	.	2.2%
CCCCn1c(N)c(N(CCC(C)C)C(=O)c2ccc3c(c2)OCCO3)c(=O)[nH]c1=O	6	-2	-0.5	-3.9	-6	0.5%
CCNc1nc(NCC)n2c(SCC(=O)Nc3cccc(F)c3)nnc2n1	-16	-21	0.4	-2.1	-7	0.9%
COc1ccc(C2C(C(C)=O)=C(C)Nc3ncnn32)cc1[N+](=O)[O-] (stereo not given)	-11	15	0.4	-1.6	-3	4.2%
Cc1ccc(C(=O)CC(C(=O)O)n2cnc([N+](=O)[O-])n2)cc1 (stereo not given)	-4	29	-0.3	-0.8	3	2.1%
COc1ccc(OCC(=O)Nc2ccc3c(c2)nc(CCNC(=O)c2ccco2)n3C)cc1	.	7	1.2	.	.	6.1%
Fc1ccccc1-c1nc(-c2cnccc2C(F)(F)F)no1	2	4	0.5	-3.2	-1	-0.4%
O=C(CCc1ccc(S(=O)(=O)NCc2ccccc2)cc1)NCc1ccco1	3	1	-1.3	-5.4	0	0.8%
O=C(CSCc1cnn(-c2ccccc2)c1-n1cccc1)NCc1cccc(Cl)c1	.	4	4.8	.	.	17%
Cn1c(=O)cc(OCCCC(=O)N2CCN(c3ccccn3)CC2)c2ccccc21	-3	-15	-0.9	-2.0	0	1.3%

Of the compounds above, these contain a COOH group.
SMILES	Six1-Eya2 inh	TRPML1 blocker	TRPML1 agonist	D2 agonist	D2 potentiator	PINK1 expr mod
O=C(O)c1ncn(Cc2ccccc2)c1C(=O)O	-69*	-5	1.1	2.5	-12	-3.0%[38.3 µM]
CCn1c(C(=O)O)c(CC(=O)Nc2ccccc2F)c2ccccc21	-1	26	3.8	-3.7	5	3.0%
COC(=O)c1c(NC(=O)c2ccccc2C(=O)O)sc2c1CCC2	0	5	-0.5	2.5	0	1.6%
Cc1ccc(C(=O)CC(C(=O)O)n2cnc([N+](=O)[O-])n2)cc1 (stereo not given)	-4	29	-0.3	-0.8	3	2.1%

Other compounds
SMILES	Six1-Eya2 inh	TRPML1 blocker	TRPML1 agonist	D2 agonist	D2 potentiator	PINK1 expr mod
Cc1nc(C)c(/C(O)=C/c2nc3ccccc3oc2=O)s1	-6	-12	7.2	-3.3	-3	-0.4%
COc1cccc(C(=O)NCC(c2ccco2)N2CCc3ccccc3C2)c1 (stereo not given)	0	-7	-0.1	-3.3	-18	-0.1%
CN1C[C@@H]2C(c3ccc(C(F)(F)F)cc3)C3(c4ccccc4)CC2(C3)[C@H]1c1ccccc1 (stereo not given in full)	-9	-7	0.7	-1.0	-8	?
C/C(=N\Nc1nc(N2CCOCC2)nc(N2CCOCC2)n1)c1ccc([N+](=O)[O-])cc1	-4	-14	0.7	1.8	0	3.1%
COc1ccc(OC)c(/C=C2\NC(=O)NC2=O)c1	1	6	-0.1	-1.6	-3	-1.9%
Cc1ccc(C(=O)N/N=c2\sc3ccccc3n2C)cc1	-5	-11	-0.2	1.3	22	-1.1%
COc1ccc(C(O)c2cnc(C)n2Cc2ccccc2)cc1 (stereo not given)	9	14	-0.8	-0.7	-6	1.1%
COc1cc(/C=C2/SC(=O)NC2=O)ccc1Oc1ccc([N+](=O)[O-])cc1[N+](=O)[O-]	-2	.	.	4.2	5	0.8%
Cc1cc(S(=O)(=O)Nc2ccc(C(=O)NCCCN3CCOCC3)cc2)ccc1F	5	4	0.0	-4.2	-26	-1.5%
CC(=O)Oc1ccc2c(=O)oc(-c3ccc([N+](=O)[O-])cc3)nc2c1	-4	-16	-0.7	1.3	4	0.1%
COc1cc(Cl)ccc1OCc1cc(C(=O)N(C)Cc2cn(C)nc2C)no1	-2	1	-0.6	-2.9	-11	1.0%
CN(CC1CCCN(CCc2ccccc2F)C1)C(=O)c1ccoc1 (stereo not given)	4	-14	-0.1	-0.5	-37	-1.2%
CCOC(=O)C1CCCN(C(=O)CSc2nnnn2C)C1 (stereo not given)	7	15	0.2	-1.2	-5	0.2%
O=C(NNc1cc(Cl)ccc1Cl)c1cccs1	2	16	1.2	-6.6	-8	1.9%
COc1ccc(OC)c(-c2csc(NC(=O)COC(=O)C3CC3)n2)c1	-11	13	3.2	8.2	-2	-0.1%
COc1ccccc1C(=O)C1CCCN(C(=O)c2ccc(Cl)cc2)C1 (stereo not given)	-4	-14	-0.1	-1.0	-14	0.4%
CCc1ccc(NC(=O)CN2C(=O)C(c3ccccc3)=NC23CCCCCC3)cc1	.	-5	2.2	.	.	1.6%
Cc1sc(NC(=S)NC(=O)C2CCCCC2)c(C(N)=O)c1C	4	-4	-0.6	-5.0	-21	3.0%
C=CCN1C(=O)CSC1=Nc1cccc(O)c1	-2	-2	-0.4	-4.7	-15	1.5%
CCOc1cccc(N2C(=O)CC(N3CCN(c4ccc(S(=O)(=O)CC)cc4)CC3)C2=O)c1 (stereo not given)	5	3	0.1	0.5	-2	3.3%[38.3 µM]
CCN(C(=O)CSc1nc(-c2ccccc2)no1)c1ccccc1	.	17	3.7	.	.	3.2%
CC(=O)c1ccc(-c2ccc(C(=O)N3CCCc4ccccc43)o2)cc1	-19	72	3.8	0.3	-37	-0.8%

Already shown: an excerpt of the list.
SMILES	Six1-Eya2 inh	TRPML1 blocker	TRPML1 agonist	D2 agonist	D2 potentiator	PINK1 expr mod
CCOC(=O)C1CCCN(C(=O)CSc2nnnn2C)C1 (stereo not given)	7	15	0.2	-1.2	-5	0.2%
O=C(NNc1cc(Cl)ccc1Cl)c1cccs1	2	16	1.2	-6.6	-8	1.9%

Screens from PubChem.
